Assay outcomes deposited in PubChem BioAssay by several laboratories.
UUG fidelity: modulators of start codon recognition fidelity in yeast; activity score, % at 18.7 µM; S. cerevisiae UUG-firefly luciferase reporter, luminescence/redox ratio; hit rate 0.13% among 350,000; AID 602363;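 active means replicate mean at a twofold rise or more, about +100% in these data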;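 further: firefly luciferase made from a UUG start codon reports start codon fidelity; reporter light over untreated wells divided by growth signal over untreated wells; some hits fall short of that in this replicate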
Rce1 inh: blocks yeast Ras-converting enzyme. AID 2563. hit rate 0.27% among 290,000. calls only. yeast membranes, quenched prenylated peptide cleavage fluorescence;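 active means fall in fluorescence gain of 50% or more versus controls, with final raw signal at or below 3038400; inconclusive means same 50% fall but final raw signal above 3038400; inactive means fall in fluorescence gain under 50%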;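 further: plate controls were neutral control wells for no effect and wells lacking membranes for full effect; tested at 10 µM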
Target sequence (Q03530 whole entry, looked up): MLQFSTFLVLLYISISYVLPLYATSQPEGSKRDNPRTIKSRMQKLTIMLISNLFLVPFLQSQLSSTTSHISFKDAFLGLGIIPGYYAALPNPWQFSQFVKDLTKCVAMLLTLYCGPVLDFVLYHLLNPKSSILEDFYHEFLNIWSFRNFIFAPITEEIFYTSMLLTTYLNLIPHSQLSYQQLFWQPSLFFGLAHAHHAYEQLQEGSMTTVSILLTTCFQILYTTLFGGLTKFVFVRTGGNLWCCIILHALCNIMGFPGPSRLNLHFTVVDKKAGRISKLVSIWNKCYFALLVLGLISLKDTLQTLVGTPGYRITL
eIF4H inh: inhibitors of RNA binding by human eIF4H | eIF4H fluorescence polarization binding assay | AID 2012 | inhibition, % at 35 µM | Q15056 | hit rate 0.94% among 290,000;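 active means 50% or more with normal probe brightness, or confirmed in later tests; inconclusive means above 50% with abnormal brightness, or retests that disagree; inactive means below 50% or failed in later tests; about a fifth of its hits are not listed in these tables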;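 further: calls also rest on retests at 20 µM and on dose response follow-up; 0% = protein and probe with vehicle and 100% = probe without protein; strong numbers were not always called active; many hits fall short of the cut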
MT1-MMP act inh: blocks activation of human MT1-MMP. HT1080 RFP-PRO-GFP cells, GFP/RFP ratio fluorescence, overnight; percent of plate control window, DMSO zero. GFP/RFP ratio change, % at 20 µM. hit rate 0.061% among 360,000;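 active means GFP/RFP ratio change of at least 30% with cell ATP level not reduced by more than half and red fluorescence within 50% of control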; further: strong numbers were not always called active
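Assay system: HT1080 cells carrying an RFP-PRO-GFP reporter | Dosing: Single dose of 20 µM compound, 1% DMSO final | Incubation: Cells overnight before dosing, compound overnight, 37 °C, 5% CO2 | Evaluation: GFP/RFP fluorescence ratio | Control set: DMSO and RFP-L50D-GFP cell wells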
PABP polyA inh: blocks human PABP binding to poly(A) RNA | P11940 | fluorescence polarization | inhibition, % at 35 µM | hit rate 1% among 290,000 | AID 2014;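 active means 50% or more with normal probe brightness, or confirmed in later tests; inconclusive means above 50% with abnormal brightness, or retests that disagree; inactive means below 50% or failed in later tests; about a fifth of its hits are not listed in these tables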;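 further: calls also rest on retests at 20 µM and on dose response follow-up; controls were probe without protein and protein plus probe with vehicle; some compounds called inactive have numbers as strong as hits; many hits fall short of the cut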
HIV Env fusion: inhibitors of HIV Env-mediated cell fusion. HeLa-JRFL Env/CEM21 cell fusion, luciferase. inhibition, % at 12.3 µM. hit rate 1.1% among 360,000;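 active means mean replicate inhibition score of at least 50 and every replicate individually at or above 50; inconclusive means only one of the two criteria met; inactive means mean below 50 and not all replicates reaching 50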;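 further: 0% = plate neutral controls and 100% = maraviroc near 300 nM; one replicate is shown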
CSC inhib: blocks cancer stem cells; cancer stem cell-like cells viability, luminescence; inhibition, % at 7.5 µM; hit rate 1.1% among 300,000;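 active means mean at 75% or more and at least half the replicates too; inconclusive means mean and replicates disagree; tested in HMLE shEcad cells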;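 further: 0% = median of negative and 100% = median of positive control wells; the first replicate is given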
MT1-MMP act inh RFP: recorded beside MT1-MMP act inh, whose call it bears; RFP signal change, %; measured here: RFP expression control read;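 0 = vehicle wells; hits needed this value within 50% of zero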
An asterisk follows results filed as active; i = inactive; ? = inconclusive; nt = no result given; + = active, no number.

SMILES	UUG fidelity	Rce1 inh	eIF4H inh	MT1-MMP act inh	MT1-MMP act inh RFP	PABP polyA inh	HIV Env fusion	CSC inhib
CC(Sc1nc2scc(-c3ccccc3)c2c(=O)[nH]1)C(=O)NC(N)=O (stereo unspecified)	-16	i	-3	-3	1	-2	-12	-2
CC1(C)CC(=O)c2cnc3nc4ccccc4n3c2C1	nt	i	-5	6	3	-14	4	-9
C=CCn1c(SCC(=O)NCc2ccc3c(c2)OCO3)nnc1-c1cccnc1	5	i	2	-5	-2	3	7	2
CN1CCc2c(sc(/N=C/c3cccs3)c2C(N)=O)C1	-9	i	?	-48	13	?	nt	-8
O=C(COC(=O)/C=C/c1cn(-c2ccccc2)nc1-c1cccnc1)Nc1ccc(Cl)cc1Cl	-20	i	-5	4	4	-3	-19	nt
CCC1CCC(C(=O)NC(C(=O)NCCN2CCOCC2)C(C)C)CC1 (stereo unspecified)	-8	i	-17	0	5	-3	4	5
COc1ccc(/C=C/C(=O)NC(=S)NNC(=O)c2c(-c3ccccc3)noc2C)cc1	-27	i	8	3	-12	-1	91*	5
COC(=O)c1ccc(NC(=S)NCc2ccco2)cc1	-7	i	-11	6	-3	-23	-5	1
Nc1ncc(Br)cc1N=Cc1ccccc1	-14	i	?	-16	-1	5	-37	8
O=C(NC1CCCc2ccccc21)c1cc(F)cc(F)c1 (stereo unspecified)	-10	i	-16	-8	-2	-9	6	-1
COc1ccc(CNC(=O)Cn2nc(C)n3cccc3c2=O)cc1	-11	i	0	1	4	-2	4	-3
CC1=C(C(N)=O)C(c2cccs2)n2nc(-c3cccc(C)c3)nc2N1 (stereo unspecified)	-9	i	nt	-3	2	nt	-12	4
N#CCCN(C(=O)CSc1n[nH]c(=O)[nH]c1=O)c1ccccc1	-11	nt	nt	-1	0	nt	-11	-12
Cc1ccccc1S(=O)(=O)Nc1ncc(C(F)(F)F)cc1Cl	nt	i	0	1	0	-7	-8	9
CC(C)Nc1nc(NC(C)C)nc(OCCOC(=O)c2ccccc2)n1	-9	i	-6	1	0	-2	38	-3
Cn1c(SC/C=C/c2ccccc2)nnc1-c1cccs1	-23	i	0	9	6	-10	-71	-2
CCCn1c(N)c(C(=O)CSc2nc3ncc(Cl)cc3[nH]2)c(=O)[nH]c1=O	-10	nt	nt	1	0	nt	nt	-7
CCOc1ccc(N2CC(C(=O)OCC(=O)c3ccc(OC)cc3)CC2=O)cc1 (stereo unspecified)	10	i	15	-1	1	10	-2	8
CNC(=O)COc1coc(CN2CCN(c3cccc(Cl)c3)CC2)cc1=O	-11	i	7	-3	5	5	-5	3
O=C(CSc1nnc(CNc2ccccc2)o1)N1CCc2ccccc21	-17	i	-4	1	0	-2	-52	9
COc1ccccc1C(=O)Nc1ccnn1C1CCN(C(=O)C(C)(C)C)CC1	-7	i	-1	-2	-1	9	-19	-8
CCOC(=O)/C=C1\CN(Cc2ccc(OC)cc2)S(=O)(=O)c2ccccc21	-3	i	-4	2	-5	-7	3	6
CC1CN=C(NS(=O)(=O)c2ccccc2)N1 (stereo unspecified)	-9	nt	nt	-2	3	nt	5	nt
COC(=O)c1ccc(OCC(=O)c2ccccc2OC)cc1	-8	i	-6	0	4	-1	-102	3
COC(=O)c1ccc(N=NN2CCCCC2)cc1	nt	i	-9	0	-1	-3	-48	3
CCn1c(C)cc(/C=C2\NC(=O)N(Cc3ccccc3)C2=O)c1C	1	i	6	-5	2	7	-24	-7
O=C(C(NS(=O)(=O)c1cccc2nsnc12)c1ccccc1)N1CCN(c2ccccn2)CC1 (stereo unspecified)	14	i	-3	-2	-3	-5	3	-12
O=C(O)CN1C(=O)/C(=C\c2cccc(OCc3ccc(F)cc3)c2)SC1=S	-15	i	0	0	2	5	-5	11
CCOC(=O)Cc1ccc(NC(=O)c2cccc([N+](=O)[O-])c2)cc1	-14	nt	6	3	-1	-2	-37	4
COc1ccc(C(=O)c2cnc3cc4c(cc3c2C)OCO4)cc1	-6	i	-5	-5	-6	-18	-21	-5
COC(=O)[C@]1(C)N[C@H](CN(C)S(=O)(=O)c2ccc(C(F)(F)F)cc2)[C@@H]2C(=O)N(C)C(=O)[C@@H]21	8	nt	nt	-1	5	nt	-57	nt
CCOC(=O)[C@H]1[C@H]2COc3ccc(OC)cc3[C@H]2N2C(=O)CNC(=O)[C@@]12C	2	nt	nt	4	-1	nt	3	-2
CC1(C)CC2CC(C)(CN2S(=O)(=O)c2ccc(N)cc2)C1 (stereo unspecified)	-13	+	-2	8	8	-9	12	-9
CCN(CC)CC#CCC(OC)(c1ccccc1)c1ccccc1	nt	i	-15	2	1	6	-23	nt
CCOc1ccc(NC(=S)N(CCc2ccncc2)C(C)C)cc1	-23	i	4	1	2	-4	19	-6
COC(=O)C(NC(C)=O)(Nc1ccc(C)cn1)C(F)(F)F (stereo unspecified)	-35	i	-6	6	18	-2	-6	-12
O=C(Cc1ccc(Cl)c(Cl)c1)NC1CCCCCC1	nt	i	-6	-2	0	-6	-6	5
NCCCC[C@H](NC(=O)C1CCNCC1)c1nnc(CN)o1	nt	i	9	nt	nt	40	nt	3
COc1ccc(CCNS(=O)(=O)c2ccc(OC)c(OC)c2)cc1OC	-20	i	-9	1	1	-3	20	-1
COC(=O)C(=C/C=C/c1ccco1)C(=O)OC	17	i	10	-1	1	12	-17	-5
COc1ccc(NC(=O)Nc2c(C)n(C)n(-c3ccccc3)c2=O)cc1OC	-6	i	0	1	2	-4	7	-13
O=C(Nc1ccc(Cl)cc1)OCCn1nnnc1C(c1ccccc1)N1CCOCC1 (stereo unspecified)	-13	i	-8	1	7	-5	nt	-7
CC1CCN(S(=O)(=O)N2CCC(C(=O)NC(C)c3ccccc3)CC2)CC1 (stereo unspecified)	-18	nt	nt	3	-2	nt	0	nt
CN(Cc1nccn1C)C(=O)CC1C(=O)NCCN1Cc1ccc(F)cc1Cl (stereo unspecified)	-19	i	-8	1	8	-13	nt	-2
Nc1nc(CN2CCN(c3ccccc3F)CC2)nc(Nc2ccccc2)n1	-12	i	2	-6	3	4	23	22
C/C(=N\OCC(=O)Nc1ccc(OC(F)(F)F)cc1)c1ccc2c(c1)OCCO2	nt	i	-3	-3	7	-2	nt	-1
CCCc1nc2nc(C)c(NS(=O)(=O)c3ccc(CC(C)C)cc3)c(=O)n2[nH]1	0	nt	-1	3	0	9	1	6
CCOc1cc(C(=O)Nc2nnc(S(=O)(=O)N3CCOCC3)s2)cc(OCC)c1OCC	7	i	-15	-1	-3	-4	7	-4
[N-]=[N+]=CC(=O)C(Cc1ccccc1)N1C(=O)c2ccccc2C1=O (stereo unspecified)	-33	i	2	-8	3	15	nt	-13
O=C(NCC1CCCN1S(=O)(=O)c1ccccc1)c1cccc(Cl)c1 (stereo unspecified)	-15	i	nt	1	-7	nt	nt	-11
Cc1cccc(OCC(=O)N2CCN(C(=O)COc3ccc(Cl)cc3)CC2)c1	-8	i	-4	4	-3	-5	6	-8
CCOc1cccc(-n2nnnc2-c2ccc(OC)cc2)c1	-1	i	9	2	-15	-7	nt	69
CC1=C(C(=O)OC(C)C)C(c2ccsc2)NC(=O)N1C (stereo unspecified)	-18	i	4	-4	-2	-2	-5	-4
CCOc1ccccc1NS(=O)(=O)c1ccc(-n2cccn2)cc1	2	i	-8	2	-1	5	-8	4
COc1ccc(CCNC(=O)Oc2ccccc2)cc1OC	-5	i	0	-5	-2	-5	-11	42
COc1cc(NC(=O)C2CCCN(S(=O)(=O)c3ccc4c(c3)oc(=O)n4C)C2)cc(OC)c1 (stereo unspecified)	-8	i	-1	-6	-7	8	-14	-7
O=C(/C=C/c1cccs1)N1CCN(c2ccccc2)CC1	nt	i	-10	4	2	2	-1	2
CCOC(=O)c1ccc(NC(=O)Cn2nnc(-c3ccccc3F)n2)cc1	nt	i	6	3	1	-6	nt	-3
CN(Cc1ccco1)C(=O)Cn1c(=O)oc2cc(S(=O)(=O)NCc3ccccc3)ccc21	1	i	-11	-2	-4	-20	-10	4
O=C(Cn1c(NCCO)nc2ccccc21)c1ccc(F)cc1	-13	i	-4	-2	-4	1	6	-3
(next part)
SMILES	UUG fidelity	Rce1 inh	eIF4H inh	MT1-MMP act inh	MT1-MMP act inh RFP	PABP polyA inh	HIV Env fusion	CSC inhib
CCOC(=O)c1ccc(Oc2cn[nH]c2-c2ccc(OCC(=O)NN)cc2O)cc1	-15	i	-7	3	1	2	-7	15
CCS(=O)(=O)c1nc(S(=O)(=O)c2ccc(Cl)cc2)c(N2CCN(CCO)CC2)s1	-7	i	-5	-1	1	10	4	1
C[C@@H]1CN(C(=O)c2cc(COc3cccc(C(F)(F)F)c3)on2)C[C@H](C)O1	-4	i	3	6	4	12	-54	13
Cn1c(=O)c2[nH]c(N3CCN(c4cccc(O)c4)CC3)nc2n(C)c1=O	nt	i	-1	0	7	-16	-7	14
O=C(COC(=O)c1ccccc1OC(F)F)Nc1ccc2[nH]c(=O)[nH]c2c1	-6	i	nt	10	5	nt	i	-4
Cc1cc(C(=O)N2CCN(c3ncccn3)CC2)sc1-c1ccccc1	-20	i	nt	0	-6	nt	-57	-2
COc1ccc(-c2noc(C3CCCN(C(=O)Nc4ccccc4)C3)n2)cc1 (stereo unspecified)	nt	i	-1	-1	-6	4	-3	-12
O=C(CSc1ccc(-c2cccc([N+](=O)[O-])c2)nn1)NCc1ccccc1	nt	i	-2	-2	-4	11	19	-14
Nc1ccc(N=Nc2ccccc2)c(N)n1	-8	i	2	-62	1	-3	-154	nt
Cc1ccccc1NC(=O)Nc1ccc2c(c1)CCC2	-4	i	-13	2	6	-3	-41	0
CCOC(=O)NC(=O)/C(N=Nc1cccc(C(F)(F)F)c1)=C(\C)O	nt	i	1	-2	-9	-9	10	-2
COc1cc2c(cc1OC)CN(C1CCC(C(C)(C)C)CC1)CC2 (stereo unspecified)	-13	nt	nt	2	-3	nt	5	nt
Cc1sc2ccccc2c1CNC[C@H]1O[C@@H](n2cnc3c(N)ncnc32)[C@H](O)[C@@H]1O	3	nt	nt	-1	2	nt	-9	nt
CC(=O)/C=C1/C(=O)Nc2ccccc21	nt	i	-4	0	6	3	-10	0
O=C(c1ccc(N2C(=O)CCC2=O)cc1)N1CCOCC1	-8	i	-1	1	-3	-3	nt	-18
Cc1cccc(-n2c3nc(=O)[nH]c(=O)c-3cc3c(C)nn(-c4ccccc4)c32)c1	nt	i	-4	nt	nt	20	nt	3
CC(=O)OC1CCC2C3CCC4OC(=O)CCC4C3CCC12C (stereo unspecified)	-4	nt	nt	-1	3	nt	-8	nt
Cc1ccc(NC(=O)CC2C(=O)N(Cc3ccccc3)C(=S)N2NC(=O)c2ccccc2)c(C)c1 (stereo unspecified)	nt	i	-5	0	-8	-1	nt	-4
